Source: PubChem BioAssay
Methyltransferases – Primary Screen for Target Class Profiling of Small Molecule Inhibitors of Methyltransferases | calls only at 40 µM | hit rate 3.9% among 25,000 | purified enzyme, MTase-Glo SAH luminescence; active compounds read low; active = -50% or lower on at least one of six enzymes; inconclusive = the cases between; inactive = as a rule above -30% on all six;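 note: enzymes were COMT GAMT GNMT HNMT NNMT and PNMT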
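Each enzyme was reacted with SAM and its substrate, with compounds tested once at 40 uM; SAH formed was read by MTase-Glo luminescence.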
Calls only; i = inactive; ? = inconclusive; + = active, no number. % is set by controls: 0 for no effect and ±100 for the full control effect. Only part of the results is shown (hit frequency here may not be typical).

SMILES	Methyltransferases
O=C(c1nnc(COc2ccc3c(c2)OCO3)n1Cc1ccccc1)N1CCC[C@@H]1c1ccc(Br)cc1	i
CC[C@]1(O)C[C@H]2CN(CCC3C(=Nc4ccccc43)[C@@](C(=O)OC)(c3cc4c(cc3OC)N(C)[C@H]3[C@@](O)(C(N)=O)[C@H](O)[C@]5(CC)C=CCN6CC[C@]43[C@@H]65)C2)C1 (some centres undefined)	?
CC1(C(=O)NC2CCCC2)COc2c(oc3ccccc23)C(=O)N1Cc1cccc(Br)c1 (centres undefined)	i
CCCNS(=O)(=O)c1ccc2c(c1)n(C)c(=O)n2C	i
Cc1cc(C)cc(NC(=O)CN(C)S(=O)(=O)c2ccc3[nH]c4c(c3c2)CCCC4)c1	i
COc1ccc(S(=O)(=O)NCC(c2ccco2)N2CCN(c3ccccc3)CC2)cc1 (centres undefined)	i
C=C[C@H]1[C@H](O[C@@H]2O[C@H](CO)[C@@H](O)[C@H](O)[C@H]2O)OC=C(C(=O)OC)[C@H]1CC=O	i
COc1ccc(C(=O)N2CCN(C(=O)N3CC4CC(C3)[C@H]3CCCC(=O)N3C4)CC2)c(OC)n1 (some centres undefined)	i
C=CS(=O)(=O)N1CCCN(c2cc(NCCC(=O)O)nc(-c3ccccn3)n2)CC1	?
CC(C)CN1CCN(C(=O)C2CCc3ncc(-c4ccc(F)cc4)n3C2)CC1 (centres undefined)	i
CCCC1CCC(c2ccc(C(=O)COC(=O)C(Cc3c[nH]c4ccccc34)NC(=O)c3ccc(CC)cc3)cc2)CC1 (centres undefined)	i
Cc1cccc(OCc2c(C(=O)N3CCCC3c3nncn3CCN(C)C)noc2C)c1 (centres undefined)	i
COc1cc(-c2ncn(/C=C\C(=O)OC(C)C)n2)cc(C(F)(F)F)c1	i
COCCn1cnc2ccc(-c3cccc(O)c3)nc2c1=O	i
CSc1ccccc1C(=O)N1CCN(C(C)=O)CC(O)C1 (centres undefined)	i
c1cncc(-c2cc(-c3cccc(N4CCOCC4)c3)cn3cncc23)c1	i
O=C(/C=C/c1ccc(O)c(O)c1)O[C@H]1[C@H](OC2CCCCC2O)O[C@H](CO)[C@@H](O)[C@@H]1O (some centres undefined)	?
CC(C)Cn1c(=O)c2ccc(C(=O)NC(C)C)cc2n2c(=O)n(CC(=O)Nc3ccccc3F)nc12	i
C=C(C)C(=O)O[C@H]1C[C@@](C)(OC(C)=O)[C@@]2(O)CC[C@@](C)(O)[C@H](OC(C)=O)[C@@]23OC(=O)C(COC)=C13	i
CC1=C[C@@H](CN(CC2CC2)CC2CC2)[C@H](C(C)C)C[C@H]1Cc1nc2ccncc2[nH]1	+
CCCN1C(=O)c2cc3c(OC)ccc(OC)c3n2CC1(C)C(=O)NC1CCCC(C)C1C (centres undefined)	i
CC[C@@H](Nc1c(Nc2cccc(C(=O)N(C)C)c2O)c(=O)c1=O)c1cc(C(C)C)co1	i
CC(C)OCCCNC(=O)CCc1nnc2n(Cc3ccc(F)cc3)c(=O)c3ccccc3n12	i
Cc1cccc(C2c3cccn3-c3sc4c(c3CN2C(=O)Nc2ccccc2F)CCCC4)c1 (centres undefined)	i
COc1ccc(N2CCN(C(=O)CC3CCCCN(C)C3=O)CC2)cc1 (centres undefined)	i
COC1=CC(=O)C[C@@H](C)[C@@]12Oc1c(Cl)c(OC)cc(OC)c1C2=O	i
CC1(C(=O)NCc2ccccc2)Cn2c(cc3ccccc32)C(=O)N1Cc1ccco1 (centres undefined)	i
CCC(C)NC(=O)c1ccc2c(=O)n(C(C)C)c3nn(CC(=O)NCc4ccccc4)c(=O)n3c2c1 (centres undefined)	i
CCNC(=O)N1CCC(NC(=O)c2cccc(CCC(C)(C)O)c2)CC1	i
CC(C)CCn1c(=O)c2ccc(C(=O)NC(C)C)cc2n2c(=O)n(CC(=O)NC3CCCCC3)nc12	i
Cc1cc(C)cc(NC(=O)CCc2nnc3n(CCCOC(C)C)c(=O)c4ccccc4n23)c1	i
NC(=Nc1ccccc1)NC(=O)c1nc(Cl)c(N)nc1N	i
CC(C)Cn1c(=O)c2cc(F)ccc2n2c(SCc3ccc(F)cc3)nnc12	i
COc1ccc(NC(=O)N2CC(N(CC(C)C)C3CCOCC3)C2)cc1F	i
COC(=O)N(C)c1c(N)nc(-c2nn(Cc3ccccc3F)c3ncccc23)nc1N	i
COc1ccccc1CN1C(=O)c2ccc(-c3ccco3)n2CC1(C)C(=O)NC1CCCCC1 (centres undefined)	i
CCCN1C(=O)c2c(C(=O)NCCc3cccs3)ncn2CC1(C)C(=O)NCCC(C)C (centres undefined)	i
CN(C)C[C@@H]1CN(Cc2cccnc2)C[C@H]1NC(=O)CCn1cccn1	i
CCN1C(C)(C)CC(Oc2ccc(C(=O)Nc3ccc(NC(=O)Nc4cc(C(C)(C)C)on4)cc3)nc2)CC1(C)C	i
CCCCN(CC)CCN1C(=O)c2cc3occc3n2CC1(C)C(=O)NC1CCCCCC1 (centres undefined)	i

Of the compounds above, these contain an NH in an aromatic ring:
SMILES	Methyltransferases
Cc1cc(C)cc(NC(=O)CN(C)S(=O)(=O)c2ccc3[nH]c4c(c3c2)CCCC4)c1	i
CCCC1CCC(c2ccc(C(=O)COC(=O)C(Cc3c[nH]c4ccccc34)NC(=O)c3ccc(CC)cc3)cc2)CC1 (centres undefined)	i
CC1=C[C@@H](CN(CC2CC2)CC2CC2)[C@H](C(C)C)C[C@H]1Cc1nc2ccncc2[nH]1	+

The listing continues.
SMILES	Methyltransferases
COCc1ccccc1-c1cn(C)c(=O)n2cc(COc3ccc(Cl)cc3)nc12	i
CCCn1c(=O)c2cc(F)ccc2n2c(SCC(=O)Nc3cccc(C)c3)nnc12	i
CC(C)CCNC(=O)C1(C)Cn2nc(C(=O)NCc3ccc(Cl)cc3)cc2C(=O)N1C (centres undefined)	i
CCOCCCNC(=O)C1c2c(n(C)c3ccccc23)SCC(=O)N1c1ccc(Cl)cc1 (centres undefined)	i
COc1ccc(C(=O)NC[C@H]2O[C@H](Cc3cc(CN4CCOCC4)on3)CC[C@@H]2O)cc1	i
O=C(NCCCNCCCNC(=O)c1cccnc1)c1cccnc1	i
CN(C)c1nc(-c2ccccc2)nc2c1CCN(C(=O)C1CCOC1)C2 (centres undefined)	i
COc1ccc(CC2(CO)CCN(c3nccc(N)n3)CC2)cc1	i
COc1ccc(Cn2c(=O)c3ccccc3n3c(-c4ccc(OC)cc4O)nnc23)cc1	i
COC(=O)C1=CO[C@@H](O[C@@H]2O[C@H](CO[C@@H]3O[C@H](CO)[C@@H](O)[C@H](O)[C@H]3O)[C@@H](O)[C@H](O)[C@H]2O)[C@@H]2C(CO)=CC[C@H]12	i
CCOc1cccc(C2c3cccn3-c3sc4c(c3CN2C(=O)NC(C)C)CCCC4)c1 (centres undefined)	i
Cc1cnc(C(=O)N(C)C2CCc3nn(CC4CC4)c(=O)n3CC2)cn1 (centres undefined)	i
CCn1nc(CC(C)C)cc1C(=O)N(C)Cc1cccc(-n2cccn2)c1	i
CC1(C(=O)NC2CCCCCC2)Cn2c(cc3sccc32)C(=O)N1Cc1cccc(Cl)c1 (centres undefined)	i
Cc1ccc(C)c(N2CCN(C(=O)CCc3nnc4n(CCc5ccccc5)c(=O)c5ccccc5n34)CC2)c1	i

A run of entries of the results above:
SMILES	Methyltransferases
Cc1cnc(C(=O)N(C)C2CCc3nn(CC4CC4)c(=O)n3CC2)cn1 (centres undefined)	i
CCn1nc(CC(C)C)cc1C(=O)N(C)Cc1cccc(-n2cccn2)c1	i
CC1(C(=O)NC2CCCCCC2)Cn2c(cc3sccc32)C(=O)N1Cc1cccc(Cl)c1 (centres undefined)	i
Cc1ccc(C)c(N2CCN(C(=O)CCc3nnc4n(CCc5ccccc5)c(=O)c5ccccc5n34)CC2)c1	i
